CtBP-E1A inh: inhibitors of CtBP/E1A interaction. activity change, % (no concentration beside the values). AlphaScreen GST-E1A/His-CtBP binding, 1536-well; active compounds read low; control for the full effect not named in the record. 0.49% of 340,000 active; in the data active means activity change below about -65%; inconclusive means about -30% to -65%; inactive means above about -30%; note: % is set by controls: 0 for no effect and ±100 for the full control effect
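In 5 uL wells, 23 nL compound meets equimolar GST-E1A and His-CtBP (5X stock 125 nM each) for 2 h, 37 °C. Beads (5X, 50 ug/mL) then 1 h, 37 °C, dark.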
D2 agonist: activates the human D2 dopamine receptor; DiscoveRx PathHunter D2 beta-arrestin, luminescence, 90 min; 100% = 57 uM dopamine signal; P14416; 0.084% of 360,000 active; activation, % (test concentration not listed); AID 624465; in the data active = activation above about 40%; inconclusive = about 15% to 40%; inactive = below about 15%; note: compound concentration not given in the record; the text of the record calls up to 30% inactive
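DiscoveRx PathHunter D2 beta-arrestin cells (2,100/well) attached overnight, then compound-stimulated 90 min at 37 C in HBSS/10 mM HEPES/0.1% Tween-20 buffer; beta-galactosidase complementation read by luminescence after 1 h at ambient temperature. Dopamine 57 uM final (EC100) as control.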
Sfp inh: blocks B. subtilis Sfp PPTase activity | Potency, µM, inactives show max response, negative = inhibition, usual class: inhibitors | 3.5% of 310,000 active | Q9F4F7 | AID 1490 | Biochemical Sfp PPTase activity, qHTS; active = well fitted inhibition curve with a large enough effect; inconclusive = small, poorly fitted or top-dose-only effect, or another doubt; inactive = no such curve, though single readings can be large or run the other way;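 note: the enzyme is Sfp with the accession as filed and its product quenches rhodamine fluorescence; potency is the fitted concentration of half-maximal effect; 0% = enzyme reaction without inhibitor and -100% = no enzyme wells; top concentration of the series not given in the record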
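Reaction rates are the 30-min fluorescence difference (ex 525, em 598 nm) in wells containing 15 nM Sfp, 5 uM rhodamine-CoA and 12.5 uM BHQ-2-YbbR at pH 7.6 with 10 mM MgCl2.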
D2 PAM: potentiates the human D2 dopamine receptor allosterically | P14416 | DiscoveRx D2 beta-arrestin cells, luminescence, 90 min; 100% = 57 uM dopamine signal | potentiation, % (no concentration beside the values) | 0.23% of 360,000 active | AID 624464; active = potentiation of 50% or more; inconclusive = 30% to 50%; inactive = 30% or less;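 note: compound concentration not given in the record; tested on top of an EC20 dose of dopamine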
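D2 cells co-treated with compound plus 50 nM dopamine (EC20) for 90 min at 37 deg C to detect potentiation. Beta-arrestin recruitment was read as enzyme-fragment luminescence after 1 h at ambient temperature. Full response was set by 57 uM dopamine.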
PINK1 expr mod: changes PINK1 expression; PINK1 immunofluorescence, high-content cytometry, 24 h; Potency, µM (top dose mostly 76.6 µM), for the others: at the top dose activation (PINK1 increase), hits mostly activators; 0.2% of 410,000 active; AID 624263; active = well fitted activation curve with a large enough effect; inconclusive = small, poorly fitted or top-dose-only effect; inactive = flat fitted curve, though single readings scatter; cell line not stated here;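 note: potency is the fitted concentration of half-maximal effect; % of control where 0% means no effect; nearly all actives have a fitted effect of over 65% in size; a mitochondrial uncoupler was the plate control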
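PINK1 protein level read as immunofluorescence by microplate cytometer in a fixed, stained stable cell line after 24 h exposure to five compound concentrations, with CCCP as control.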
Six1-Eya2 blk: Six1/Eya2 interaction inhibition; Q15475+O00167; AlphaScreen GST-Six1/His-Eya2 binding, biochemical; active compounds read low; control for the full effect not named in the record; activity change, % (test concentration not listed); 0.56% of 360,000 active; AID 651725; in the data active = activity change below about -65%; inconclusive = about -30% to -65%; inactive = above about -30%; note: % is set by controls: 0 for no effect and ±100 for the full control effect
Target sequence (O00167 whole entry, looked up): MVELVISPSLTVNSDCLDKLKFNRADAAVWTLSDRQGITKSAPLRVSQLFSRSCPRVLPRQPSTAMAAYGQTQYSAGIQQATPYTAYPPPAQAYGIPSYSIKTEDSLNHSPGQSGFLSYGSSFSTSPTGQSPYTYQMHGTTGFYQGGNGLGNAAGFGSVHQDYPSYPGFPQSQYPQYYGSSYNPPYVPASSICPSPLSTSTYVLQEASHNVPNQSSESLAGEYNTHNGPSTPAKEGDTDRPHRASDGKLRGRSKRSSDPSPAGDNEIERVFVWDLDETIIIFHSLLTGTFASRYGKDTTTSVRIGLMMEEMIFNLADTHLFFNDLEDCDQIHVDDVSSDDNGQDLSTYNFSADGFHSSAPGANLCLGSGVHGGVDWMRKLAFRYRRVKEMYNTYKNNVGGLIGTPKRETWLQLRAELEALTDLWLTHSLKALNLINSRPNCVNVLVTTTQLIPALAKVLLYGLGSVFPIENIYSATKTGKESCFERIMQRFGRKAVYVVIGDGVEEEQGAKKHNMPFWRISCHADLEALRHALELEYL
Target sequence (Q15475 whole entry, looked up): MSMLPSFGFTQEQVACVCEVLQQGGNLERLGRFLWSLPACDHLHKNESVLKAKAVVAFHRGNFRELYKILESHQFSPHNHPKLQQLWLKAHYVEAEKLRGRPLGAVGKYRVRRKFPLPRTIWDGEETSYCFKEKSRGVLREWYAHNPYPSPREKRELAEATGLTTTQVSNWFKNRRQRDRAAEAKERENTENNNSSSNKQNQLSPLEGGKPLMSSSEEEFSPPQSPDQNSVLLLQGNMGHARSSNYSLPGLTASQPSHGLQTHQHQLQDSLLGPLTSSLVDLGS
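AlphaScreen with GST-Six1 and His-Eya2 (5X mix: 250 nM and 500 nM), glutathione donor and nickel acceptor beads; buffer 50 mM Tris pH 8.0, 300 mM NaCl, 1 mM TCEP; 1 h at 37 C in the dark.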
TRPV1 PAM: potentiators of human vanilloid receptor 1 (TRPV1) | Q8NER1 | TRPV1-expressing cells, Fluo-8 calcium influx, capsaicin EC20 potentiation; host cell line not named in the record; control for the full effect not named in the record | potentiation, % at 8.33 µM | 0.02% of 320,000 active | AID 540277; active means potentiation above 80%; inconclusive means 30% to 80%; inactive means below 30%; note: 0% is about no effect
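TRPV1-expressing cells were cultured overnight at 35.5C and loaded with Fluo-8 calcium dye for 40 to 90 min at room temperature. After a 10 s baseline, compound was added and calcium influx was read kinetically for 3 min (ex 480/em 520 nm).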
* hit, by the source's call; ? = inconclusive; / = no result given; & = joins results of further samples; [ ] = remark or other dose.

compound	CtBP-E1A inh	D2 agonist	Sfp inh	D2 PAM	PINK1 expr mod	Six1-Eya2 blk	TRPV1 PAM
CC1(C(=O)NCc2cccc(C(F)(F)F)c2)CCN1Cc1ccc(-c2ccccc2)o1 (stereo not given)	11.5	-3.6	/	-5.0	28.7%	-2.7	/
CC(=O)Nc1ccc(NC(=O)CSc2nnnn2-c2ccc3c(c2)OCCO3)cc1	2.9	-4.2	20.0%	-2.6	0.6%	-1.5	4.4
COc1ccccc1NC(=O)c1c(C)nc2ccccc2c1C(=O)O	-0.1	4.5	4.1%	1.2	2.0%	5.0	3.6
Cc1ccc(OC(=O)C2CCN(C(=O)c3ccccc3C)CC2)c(Br)c1	-14.0	-2.9	/	-3.4	4.5%	8.5	-13.8
Cn1c(-c2sc3cc(C(F)(F)F)cnc3c2-c2ccccn2)n[nH]c1=S	-5.0	-3.3	-19.5%	-9.3	-2.8%	0.0	1.8
COc1cc(N/C(N)=N/c2nc(C)cc(C)n2)c(OC)cc1Cl	-13.5	-0.2	18.9%	-5.2	3.1%	-9.3	-5.2
CCCCCC(=O)Nc1sc(C)c(C)c1C#N	0.0	-2.1	79.4µM*	-8.4	?	17.0	-23.3
C=CCOc1c(Br)cc(CNc2ccc(NC(=O)C(C)C)cc2)cc1OCC	1.3	4.8	-16.7%	12.9	9.5%	3.8	?
O=C1N(CN2CCC3(CC2)OCCO3)c2ccccc2C12OCCCO2	8.4	-3.1	4.1%	-10.0	-1.9%[38.3 µM]	4.7	-14.0
CCOc1ccc(N2C(=O)Nc3ccccc3C2(O)C(=O)NCc2ccco2)cc1 (stereo not given)	-7.8	4.9	22.7%	-0.4	-0.6%	1.8	6.4
COc1cc(OC)c(/C=N/NC(N)=S)cc1Br	-17.0	-4.2	-13.8%	-29.3	12.7%	-4.2	-0.1
C=CCNC(=O)CSc1ncc2c(n1)-c1c(csc1SC)CC2	3.0	-2.6	1.0%	-14.6	-1.8%	-5.3	-12.4
CCOc1ccccc1Oc1coc2cc(OCC(=O)O)ccc2c1=O	2.5	-2.2	22.8%	-5.3	-0.1%	2.5	?
COC(=O)[C@H](Cc1ccccc1)NS(=O)(=O)N[C@@H](Cc1ccccc1)C(=O)OC	5.4	-1.6	/	-3.6	-0.4%	0.1	-2.3
CCC1=NN(C(=O)c2ccccc2O)C(O)(c2ccccc2)C1 (stereo not given)	-7.1	-1.1	9.3%	-5.0	-0.6%	-17.0	-11.3
Cc1ccc(NC(=O)c2cc(S(=O)(=O)N3CCCC3)c[nH]2)c(C)c1	-0.7	-6.9	8.3%	-5.2	1.8%&0.3%	1.7	20.4
Cc1noc(C)c1COc1cccc(C(=O)Nc2ccc(C#N)cc2)c1	2.9	0.4	2.7%	-11.4	0.0%	7.1	-5.3
Cc1cc(C)cc(N2C(=O)CCN(Cc3ccccc3)C2=O)c1	5.5	4.0	21.3%	-10.7	-1.1%	18.1	6.0
CCCCN(C(=O)c1ccc2c(c1)OCCO2)c1c(N)n(CC(C)C)c(=O)[nH]c1=O	5.6	0.6	/	3.2	3.3%	-1.3	3.5
Nc1nc(Br)c2c(F)cccc2c1-c1ccc(F)cc1	32.2	2.1	-12.8%	-7.2	?	22.3	/
O=C(O)c1ccc(Cl)c(S(=O)(=O)N2CCCC2)c1	8.6	-1.7	13.5%	-0.8	-0.2%	0.4	-9.1
O=C1CS(=O)(=O)N(Cc2cccc(F)c2)c2ccc(Br)cc21	-0.2	1.6	/	-3.2	5.9%	-6.7	-3.9
Cc1ncc(CN2CCCC(C(=O)Nc3ccc(-c4cccc(F)c4)cc3)C2)s1 (stereo not given)	-1.2	-1.9	2.9%	4.4	?	-11.0	7.9
C=CCNC1=C(Cl)C(=O)N(c2ccccc2Cl)C1=O	5.4	-2.8	9.7%	-9.9	3.3%[38.3 µM]	12.9	-10.1
CCOC(=O)[C@]12CCC=C1N(Cc1cccc3ccccc13)C(=O)[C@H](CC(=O)NCc1cccs1)C2	-19.7	/	/	/	0.2%	-4.7	/
CCC1(C)CC(CC(=O)O)(c2ccccc2OC)CCO1 (stereo not given)	6.2	0.4	15.6%	-3.1	-4.1%	1.9	-10.0
C=CCn1cccc(C(=O)Nc2cc(OC)c(OC)c(OC)c2)c1=O	-0.3	-0.1	14.8%	-6.7	-0.6%	2.4	?
O=C(NNC(=O)c1cc2ccccc2cc1O)c1cccs1	-4.7	-0.9	10.2%	-6.8	0.9%	-11.5	-0.9
COc1ccc(Cl)cc1NC(=O)C(C)OC(=O)c1ccc(NS(=O)(=O)c2ccc3[nH]c(=O)[nH]c3c2)cc1 (stereo not given)	-0.1	-6.7	16.1%	-16.2	-3.9%	-11.9	4.6
COc1cc(S(=O)(=O)n2nc(C)cc2C)c(OC)cc1Cl	-4.8	-3.9	22.9%	12.3	/	-1.5	3.5
CCCc1ccc(-c2cc(C(=O)NCCc3ccc(S(N)(=O)=O)cc3)c3ccccc3n2)cc1	15.3	-3.2	?	-3.6	15.7%[38.3 µM]	1.9	4.8
Cn1cc(SCC(=O)Nc2ccc3c(c2)OCCO3)c2ccccc21	-10.8	-4.5	-8.2%	-4.7	1.3%	-4.7	10.8
N/C(=N\OC(=O)Nc1ccccc1)c1ncc([N+](=O)[O-])s1	-22.2	?	-10.8%	26.3	-0.8%	-12.9	-8.7
CC(C)c1onc(C(=O)N2CCCCCC2)c1[N+](=O)[O-]	3.0	-2.5	21.2%	-1.8	-1.6%	7.2	-4.3
Cc1cc(-n2c(=S)sc3c(=O)n(-c4ccc(F)cc4)c(SCC(=O)O)nc32)ccc1Cl	-29.1	-5.7	?	-6.4	-0.6%	-21.6	14.8
COc1cc(OC)cc(-c2nnc(SCC(=O)N3CCCc4ccccc43)o2)c1	2.3	-6.0	-4.6%	-14.1	-1.8%	-0.1	7.3

Entries above printed as active in Sfp inh:
molecule	CtBP-E1A inh	D2 agonist	Sfp inh	D2 PAM	PINK1 expr mod	Six1-Eya2 blk
CCCCCC(=O)Nc1sc(C)c(C)c1C#N	0.0	-2.1	79.4µM*	-8.4	?	17.0

(further entries)
compound	CtBP-E1A inh	D2 agonist	Sfp inh	D2 PAM	PINK1 expr mod	Six1-Eya2 blk	TRPV1 PAM
CCn1c(SCc2ccccc2)nnc1-c1cccnc1	3.0	-5.0	1.6%	-6.6	-0.7%	-0.9	-6.2
COc1ccc(NC(=S)N2CCCCC2c2cccnc2)cc1 (stereo not given)	1.0	-1.9	-1.4%	-0.9	-3.2%	0.0	-5.3
CCCCCSc1nnc(-c2ccccc2NC(C)=O)c(=O)[nH]1	-11.1	-4.0	0.1%	-0.3	1.0%	18.7	4.8
CCC1(c2ccccc2)C(=O)N(C(=O)OC(C)(C)C)N1C(=O)OC(C)(C)C (stereo not given)	5.9	-3.2	/	-2.8	0.3%	2.3	5.4
CC(C)C(=O)Nc1ccc(N2CCCC2)cc1	-8.2	-2.1	79.4µM*	16.8	-0.8%	-2.5	-14.5
CC1CCN(C(=O)CCc2nnc3ccc(N4CCC5(CC4)OCCO5)nn23)CC1	2.6	-6.2	11.7%	-8.2	1.6%	2.8	6.2
O=c1[nH]c(-c2ccccc2)ncc1Oc1ccccc1	0.4	-1.8	/	-2.5	0.6%	1.6	/
CC(NC(=S)Nc1ccccc1Cl)C(c1ccccc1)N1CCOCC1 (stereo not given)	-16.2	-1.8	-4.4%	-4.9	0.4%	-1.3	-9.5
CCc1ccccc1OCC(=O)Nc1ccc(S(N)(=O)=O)cc1	5.0	-1.0	8.6%	-9.2	16.1%[38.3 µM]	0.5	-1.7
O=C(Nc1ccncc1)Nc1ccc(Br)cc1Cl	4.6	8.4	-16.4%	1.2	4.2%	0.1	-13.4
CCOc1ccc(-c2nc(CSc3nncs3)cs2)cc1OC	2.7	-0.6	-15.0%	1.1	3.2%	-4.0	-7.6
Cc1cc(C)cc(OCc2nnc(SCC(=O)c3ccc(Br)cc3)o2)c1	4.9	-4.6	9.4%	9.5	-1.1%	-0.5	4.0

Continued, starting with the last 2 of the part before.
compound	CtBP-E1A inh	D2 agonist	Sfp inh	D2 PAM	PINK1 expr mod	Six1-Eya2 blk	TRPV1 PAM
CCOc1ccc(-c2nc(CSc3nncs3)cs2)cc1OC	2.7	-0.6	-15.0%	1.1	3.2%	-4.0	-7.6
Cc1cc(C)cc(OCc2nnc(SCC(=O)c3ccc(Br)cc3)o2)c1	4.9	-4.6	9.4%	9.5	-1.1%	-0.5	4.0
N=c1c2c3c(sc2ncn1N)CCC3	-12.3	-2.7	2.7%	-7.3	-0.4%	-7.8	11.0
CCNC(=S)N(CCN(CC)CC)Cc1cc2cc3c(cc2[nH]c1=O)OCCO3	-22.7	-5.8	-13.3%	-4.8	2.4%	-1.2	7.5
C=CCOc1ccc2c(CC)cc(=O)oc2c1C	18.1	1.9	3.4%	-12.0	-1.5%	11.6	-20.0
C=CCc1ccccc1OCC(O)CN1CCOCC1 (stereo not given)	24.2	-3.9	/	-13.5	0.4%	28.7	/
Cc1ccc(C2/C(=C(/O)c3cnn(-c4ccccc4)c3C)C(=O)C(=O)N2CCN2CCOCC2)o1 (stereo not given)	1.9	-3.6	50.1µM*	-12.8	3.7%	5.5	2.5
CC(=O)NC(CC(=O)NC1CCCc2ccccc21)c1ccccc1 (stereo not given)	8.3	-3.6	10.3%	-12.9	2.7%	-1.1	-6.1
C/C(=N\NC(=O)Cn1ccc(C(F)(F)F)n1)c1ccc2c(c1)OCO2	4.8	-5.0	10.7%	-2.9	-1.1%	-0.9	0.8
CCC(=O)N1CCN(c2ccc(NC(=O)c3ccc(N4CCOCC4)c([N+](=O)[O-])c3)cc2)CC1	3.5	-2.4	14.5%	-3.4	-0.4%	-7.2	-13.2
Cc1cc(S(=O)(=O)NCC(c2ccc3c(c2)OCO3)N2CCOCC2)ccc1F (stereo not given)	-1.2	1.7	/	-2.1	-2.2%	-2.3	6.4
Cc1ccc(S(=O)(=O)CCC(=O)OCC(=O)Nc2cc(S(=O)(=O)N3CCOCC3)ccc2Cl)cc1	-8.4	-2.4	/	-6.1	-1.5%	6.3	/
Cc1ccc(S(=O)(=O)Nc2cccnc2)cc1	4.4	0.1	3.2%	19.6	0.3%	-1.5	-1.1
CCOC(=O)c1ccc2c(c1)N(Cc1ccccc1C)C(=O)c1ccccc1S2=O (stereo not given)	7.5	-2.6	3.8%	0.1	3.7%[38.3 µM]	1.4	-28.9

Compounds as they come (roughly 3.7% active in at least one column).
